miR-21 FLuc – raises the signal of a miR-21 reporter; 340,000 tested, under 10 active; Potency, µM (series often up to 38.3 µM), for inactives: at the highest dose reporter change, positive = more light; HeLa miR-21 FLuc reporter, luciferase, 48 h; active = well fitted rising curve with a large enough effect; inconclusive = small, poorly fitted or top-dose-only effect; inactive = no such curve, though single readings can be large or run the other way;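 further: % of control where 0% means no effect; miR-21 action dims this reporter so a rising signal means less miR-21 action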
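Compounds were titrated across several concentrations (up to approximately 40 uM) and incubated 48 hours with HeLa miR-21-FLuc reporter cells (miR-21 target sequence downstream of FLuc, endogenous miR-21). Readout was firefly luciferase luminescence after lytic detection reagent.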
Rango dissoc inh – prevents RanGTP from dissociating the Rango-importin beta complex; O95149+P62826; Biochemical FRET Rango-importin beta, RanGTP-induced dissociation; Potency, µM (highest dose often 46.1 µM), for inactives: at the top dose activity change, negative = inhibition; hit rate 0.071% among 340,000; AID 540253; active means falling FRET ratio curve, often poorly fitted, with flat reads before Ran was added; inconclusive means other falling curves, or compound fluorescence or quenching; inactive means flat or rising ratio curve;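 further: potency means the concentration at half of the fitted maximal effect; % of control where 0% means no effect; nearly all actives have a fitted effect of over 45% in size; -100% = wells without RanGTP and RCC1; the record marks most hits as doubtful in a second field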
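Rango/importin beta premix (0.1/0.25 uM final), PBS + 1 mM DTT + 0.02% Tween-20 + 0.1% BSA; cpd 5 min RT; FRET pre-read; + RanGTP-RCC1 (0.6 uM Ran, 2 mM GTP, 0.2 uM RCC1); 45 min RT; FRET post-read, ex 430, em 486/530 nm.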
GLA inh pH 4.5 – blocks human alpha-galactosidase A at pH 4.5 | purified enzyme, 4-MU-alpha-Gal fluorescence, pH 4.5 | 230,000 tested, under 10 active | activity change, negative = inhibition, % at 105 µM | AID 1467; inconclusive = small, poorly fitted or top-dose-only inhibition, or a rising curve; inactive = flat fitted curve, though single readings scatter; no compound was filed as active;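 further: 0% = full activity with enzyme and -100% = basal without enzyme; dose as in the result columns while the protocol names 77 µM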
Rango complex inh – prevents formation of the Rango-importin beta complex. Q14974. Rango CFP/YFP FRET sensor + importin beta, 45 min. hit rate 0.031% among 340,000. Potency, µM (series often up to 92.2 µM), for the others: top-dose inhibition of complex formation. AID 540263; active = rising FRET ratio curve, often small or poorly fitted; inconclusive = mostly compound fluorescence or quenching in the first reads; inactive = flat curves in all reads;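 further: potency means the concentration at half of the fitted maximal effect; 0% = DMSO wells and 100% = buffer wells lacking importin beta; nearly all actives have a fitted effect of over 15% in size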
Target sequence (Q14974 whole entry, looked up): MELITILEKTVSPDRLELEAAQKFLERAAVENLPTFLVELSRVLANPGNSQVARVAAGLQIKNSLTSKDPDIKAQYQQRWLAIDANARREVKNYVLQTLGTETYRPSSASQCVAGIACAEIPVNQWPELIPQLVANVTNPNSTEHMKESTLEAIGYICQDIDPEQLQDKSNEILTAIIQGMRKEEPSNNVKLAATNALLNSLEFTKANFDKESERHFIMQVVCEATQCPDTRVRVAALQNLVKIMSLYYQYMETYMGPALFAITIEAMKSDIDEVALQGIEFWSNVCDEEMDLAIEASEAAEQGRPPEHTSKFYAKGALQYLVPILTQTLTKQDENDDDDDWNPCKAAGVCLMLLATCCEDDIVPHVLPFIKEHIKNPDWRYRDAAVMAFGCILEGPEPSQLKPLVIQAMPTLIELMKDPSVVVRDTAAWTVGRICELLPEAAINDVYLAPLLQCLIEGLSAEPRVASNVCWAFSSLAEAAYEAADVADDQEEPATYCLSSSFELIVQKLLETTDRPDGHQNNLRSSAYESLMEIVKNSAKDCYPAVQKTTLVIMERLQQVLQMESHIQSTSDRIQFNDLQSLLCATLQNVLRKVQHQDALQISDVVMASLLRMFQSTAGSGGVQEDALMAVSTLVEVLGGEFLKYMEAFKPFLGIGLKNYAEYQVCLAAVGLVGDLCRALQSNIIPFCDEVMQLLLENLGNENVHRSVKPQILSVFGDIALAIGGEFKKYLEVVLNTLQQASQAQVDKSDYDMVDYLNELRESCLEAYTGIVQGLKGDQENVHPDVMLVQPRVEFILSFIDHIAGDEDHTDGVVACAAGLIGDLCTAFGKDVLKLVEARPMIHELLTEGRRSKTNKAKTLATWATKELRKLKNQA
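Inhibition scored from the CFP 486 nm/YFP 530 nm FRET ratio 45 min after adding 0.125 microM importin beta to 50 nM Rango biosensor preincubated 5 min with compound (room temperature, PBS with DTT, Tween-20, BSA). No-importin wells as positive control.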
Starred values were filed as active, the others as inactive; ? = inconclusive; nt = no result given; & = joins results of further samples.

Labels used below – A = miR-21 FLuc; B = Rango dissoc inh; C = GLA inh pH 4.5; D = Rango complex inh
> COc1ccc(CCN2CC(C(=O)NCc3cccc4[nH]ccc34)CCC2=O)cc1 (stereo not drawn)
  A = 0%	B = -2%	C = nt	D = 3.2%

> Cc1cc(=O)oc2c1c(C)nn2-c1nn[nH]n1
  A = -5%	B = 4%	C = -17	D = 0.7%

> COCC(=O)NNC(=O)c1ccccc1OC
  A = -2%	B = -5%	C = 11	D = 5.9%

> CN1C(=O)C(C)(C)c2cc(S(=O)(=O)NCC3CCC(C(=O)NCc4ccc(F)cc4)CC3)ccc21 (stereo not drawn)
  A = 13%	B = 10%	C = nt	D = 0.1%

> CCOC(=O)N1CCN(C(=O)COc2ccc([N+](=O)[O-])cc2)CC1
  A = -1%	B = 0%	C = -20	D = ?

> Cc1ccc(NC(=O)c2cc(S(=O)(=O)N3CCOCC3)cn2C)c(C)c1
  A = -2%	B = 1%	C = nt	D = -1.3%

> CCn1cc(CN2CCC(C(=O)Nc3cccc(-c4cccc(F)c4)c3)CC2)cn1
  A = -10%	B = -1%	C = nt	D = 2.4%

> CCCCN(C(=O)Nc1ccccc1)C1CCS(=O)(=O)C1 (stereo not drawn)
  A = nt	B = -6%	C = nt	D = 4.7%

> O=C(C1=NN[C@@H]2C(=O)N(c3cccc(C(F)(F)F)c3)C(=O)[C@H]12)C(c1ccccc1)c1ccccc1
  A = -1%	B = -9%	C = -9	D = -2.0%

> O=C(Cn1c(COc2ccccc2)nc2ccccc21)Nc1cc(Cl)c(Cl)cc1Cl
  A = 3%	B = nt	C = 4	D = nt

> CCOC(=O)C(Cc1ccccc1)NC(=O)CCc1nnc2ccc(N3CCCCC3)nn12 (stereo not drawn)
  A = 0%	B = -9%	C = nt	D = -1.2%

> CC(C)(C)c1ccc(C(=O)NC(=S)Nc2nc3c(s2)CCCC3)cc1
  A = -58%	B = -9%	C = -8	D = -1.7%

> CCN(CC)C1CC(=O)N(c2ccc(Br)cc2)C1=O (stereo not drawn)
  A = 1%	B = -9%	C = nt	D = -0.5%

> CCOC(=O)N1CCC(N2Cc3cccc(C(=O)N4CCN(c5cccc(Cl)c5)CC4)c3C2=O)CC1
  A = 5%	B = 3%	C = -3	D = 0.2%

> Cc1cc(NC(=O)CSc2nnc(C3CC3)n2N)c([N+](=O)[O-])cc1C
  A = -5%	B = -6%	C = 5	D = -1.4%

> COc1cc(C(=O)Nc2ccc(S(=O)(=O)Nc3nccc(C)n3)cc2)c([N+](=O)[O-])cc1OC
  A = -6%	B = 9%	C = -2	D = -1.0%

> CC(=O)Nc1ccc(S(=O)(=O)N2CCC(C(=O)NCCc3c[nH]c4ccccc34)CC2)cc1
  A = 9%	B = 8%	C = nt	D = -0.4%

> CC(C)(C)Nc1ncnc2sc(-c3ccccc3)cc12
  A = 12%	B = -8%	C = nt	D = -5.1%

> Cc1cc(C(=O)NCc2ccc(C(=O)O)o2)c(C)o1
  A = -2%	B = -10%	C = -2	D = 3.3%

> O=C(Cn1cnc2c(oc3ccccc32)c1=O)c1ccccc1
  A = -51%	B = 2%	C = -2	D = -1.5%

> COc1ccc(-c2cc(C(F)(F)F)nc(SCCC(=O)N3CCN(C)CC3)n2)cc1
  A = nt	B = -6%	C = nt	D = 5.5%

> CCOC(=O)C1=CN(Cc2cccc(F)c2)S(=O)(=O)N(CC)C1CCc1ccccc1 (stereo not drawn)
  A = nt	B = 6%	C = nt	D = 0.1%

> COc1ccc(C23CC4CC(CC(C4)C2)C3)cc1C(=O)NCCN(C)C
  A = 28%	B = 9%	C = nt	D = 2.6%

> CCOC(=O)c1cc2sccc2n1CC(=O)O
  A = 5%	B = -11%	C = -4	D = 5.9%

> COc1ccc(CN(CC(=O)NCc2ccco2)C(=O)CCC(=O)Nc2nccs2)cc1
  A = -2%	B = -1%	C = 5	D = 0.3%

> CC(C)CN(C(=O)c1cccc(S(=O)(=O)N2CCN(C)CC2)c1)C1CCS(=O)(=O)C1 (stereo not drawn)
  A = nt	B = 15%	C = nt	D = -3.1%

> CC1CCCCC1NC(=O)c1ccncc1 (stereo not drawn)
  A = 1%	B = 31%	C = nt	D = 0.2%

> COc1ccc(/C=N/NC(=O)c2ccc(-c3ccccc3)cc2)cc1O
  A = 2%	B = -9%	C = -8	D = 4.0%

> OCCNc1nc(Nc2ccccc2Oc2ccccc2)nc(N2CCCC2)n1
  A = nt	B = 19%	C = nt	D = 6.8%

> COc1ccc(S(=O)(=O)Nc2ccc3oc4ncccc4c(=O)c3c2)cc1OC
  A = 0%	B = -3%	C = 4	D = ?

3 entries already listed, ordered by the value under Rango dissoc inh, largest number first.
Labels used below – A = miR-21 FLuc; B = Rango dissoc inh; C = GLA inh pH 4.5; D = Rango complex inh
> CCOC(=O)N1CCC(N2Cc3cccc(C(=O)N4CCN(c5cccc(Cl)c5)CC4)c3C2=O)CC1
  A = 5%	B = 3%	C = -3	D = 0.2%

> COc1ccc(CCN2CC(C(=O)NCc3cccc4[nH]ccc34)CCC2=O)cc1 (stereo not drawn)
  A = 0%	B = -2%	C = nt	D = 3.2%

> CCCCN(C(=O)Nc1ccccc1)C1CCS(=O)(=O)C1 (stereo not drawn)
  A = nt	B = -6%	C = nt	D = 4.7%

(continued)
Labels used below – A = miR-21 FLuc; B = Rango dissoc inh; C = GLA inh pH 4.5; D = Rango complex inh
> O=S(=O)(c1ccccc1Br)N1CCC(O)(c2cccnc2)CC1
  A = -7%	B = -11%	C = -3	D = 2.0%

> COc1ccc(OC2C(=O)N(Cc3ccc4c(c3)OCO4)C2c2cccs2)cc1 (stereo not drawn)
  A = 27%	B = 0%	C = 0	D = 3.6%

> O=S(=O)(Nc1cccc(-c2cn3c(n2)SCC3)c1)c1cccs1
  A = -1%	B = -10%	C = -1	D = 0.9%

> CCn1c(SCC(=O)NNC(=S)Nc2ccccc2)nnc1-c1ccc(Cl)cc1
  A = -3%	B = -22%	C = -15	D = 3.2%

> CCOC(=O)N1CCN(C(=O)c2ccc3oc(CCCc4ccccc4)nc3c2)CC1
  A = -17%	B = 0%	C = nt	D = -0.5%

> CCOc1ccccc1N(C)C(=O)c1sc2ncn(CC(=O)N3CCCCC3C)c(=O)c2c1C (stereo not drawn)
  A = 1%	B = 8%	C = nt	D = -0.6%

> CC(C)c1ccc(S(=O)(=O)N2CCC(C(=O)N3CCN(c4cccc(Cl)c4)CC3)CC2)cc1
  A = nt	B = ?	C = nt	D = 0.6%

> Cc1noc(C)c1CSc1nc2ccccc2c(=O)n1-c1ccc(F)cc1F
  A = 14%	B = 2%	C = 1	D = -0.1%

> CC(C(=O)NCC1(c2ccccc2)CCOCC1)N1CCOCC1 (stereo not drawn)
  A = 0%	B = -2%	C = 4	D = 0.3%

> CCOc1ccc(OCC)c2sc(C)nc12
  A = -5%	B = 0%	C = -9	D = -0.1%

> CCc1onc(C)c1C(=O)Nc1cc(C)ccc1OC
  A = 3%	B = 2%	C = 0	D = -1.3%

> Cn1c(=O)cc(SCC(=O)NCC2COc3ccccc3O2)c2ccccc21 (stereo not drawn)
  A = -1%	B = 1%	C = 0	D = -1.9%

> COc1cccc(C(=O)NCC(=O)OCC(=O)NC2CCCCC2)c1
  A = nt	B = -6%	C = nt	D = -1.4%

> O=C(c1ccc(F)cc1)N1CCCC(C(=O)N2CCCCC2)C1 (stereo not drawn)
  A = -2%	B = -6%	C = nt	D = -2.3%

> CCN1CCCC1CNC(=O)Cn1cnc2sc(C)c(S(=O)(=O)N3CCC(C)CC3)c2c1=O (stereo not drawn)
  A = -8%	B = 1%	C = 4	D = ?

> CCCCn1c(N)c(N(CC(C)C)C(=O)c2ccc(N3C(=O)c4ccccc4C3=O)cc2)c(=O)[nH]c1=O
  A = nt	B = -2%	C = nt	D = -7.6%

> c1ccc(CCN(Cc2ccccc2)C2CCN(C3CCCC3)CC2)cc1
  A = -2%	B = 10%	C = -6	D = 0.7%

> O=C(NC1CCCC1)C(c1ccc(F)cc1)N(Cc1ccccc1)C(=O)c1csnn1 (stereo not drawn)
  A = 1%	B = 4%	C = nt	D = 0.8%

> CC(O)c1cccc(NC(=O)CCC(=O)O)c1 (stereo not drawn)
  A = 0%	B = 2%	C = 7	D = -2.9%

> COc1cc(/C=C2\SC(=O)N(CC(=O)Nc3cccc(C)c3)C2=O)ccc1OC(C)C(=O)O (stereo not drawn)
  A = nt	B = 21%	C = nt	D = -1.6%

> Cc1c(O)ccc2c(CN3CCN(Cc4ccccc4)CC3)cc(=O)oc12
  A = 5%	B = ?	C = nt	D = ?

> O=C(C1CC(=O)N(c2ccc3c(c2)OCCO3)C1)N1CCN(S(=O)(=O)c2ccccc2F)CC1 (stereo not drawn)
  A = nt	B = -5%	C = nt	D = -0.3%

> CC1(C)CC(NC(=O)c2cccc([N+](=O)[O-])c2)CC(C)(C)N1
  A = -2%	B = 0%	C = nt	D = -3.6%

> COc1cc(C=O)ccc1OCc1cccc(Br)c1
  A = -66%	B = -5%	C = -3	D = 2.2%

> CCCn1c2ccccc2c2cnn(CC(=O)NC(C)CC)c(=O)c21 (stereo not drawn)
  A = -3%&-1%	B = 6%	C = nt	D = 0.7%

> CCOC(=O)CN(C(=O)COc1nc(C)cc(C)c1C#N)c1ccc(Cl)cc1
  A = 5%	B = -6%	C = -3	D = -3.7%

> O=C1OCc2cc(NS(=O)(=O)c3cccs3)ccc21
  A = -9%	B = -13%	C = 3	D = 3.0%

> CC(=O)NCC(=O)OC(C)C(=O)Nc1ccc(C(C)=O)cc1 (stereo not drawn)
  A = -6%	B = -3%	C = 3	D = -3.9%

> COc1cc(CNCCc2ccccc2F)ccc1OCc1ccc(Cl)nc1
  A = -28%	B = 21%	C = -2	D = 2.5%

> CCN1C(=O)CSc2ccc(C(=O)NCc3ccc(OC)cc3)cc21
  A = 6%	B = -12%	C = 0	D = -6.5%

Two records picked at random from those above, as already listed:
Labels used below – A = miR-21 FLuc; B = Rango dissoc inh; C = GLA inh pH 4.5; D = Rango complex inh
> COc1cccc(C(=O)NCC(=O)OCC(=O)NC2CCCCC2)c1
  A = nt	B = -6%	C = nt	D = -1.4%

> CCOC(=O)C1=CN(Cc2cccc(F)c2)S(=O)(=O)N(CC)C1CCc1ccccc1 (stereo not drawn)
  A = nt	B = 6%	C = nt	D = 0.1%

Of the compounds above, these contain a COOH group:
Labels used below – A = miR-21 FLuc; B = Rango dissoc inh; C = GLA inh pH 4.5; D = Rango complex inh
> Cc1cc(C(=O)NCc2ccc(C(=O)O)o2)c(C)o1
  A = -2%	B = -10%	C = -2	D = 3.3%

> CCOC(=O)c1cc2sccc2n1CC(=O)O
  A = 5%	B = -11%	C = -4	D = 5.9%

> CC(O)c1cccc(NC(=O)CCC(=O)O)c1 (stereo not drawn)
  A = 0%	B = 2%	C = 7	D = -2.9%

> COc1cc(/C=C2\SC(=O)N(CC(=O)Nc3cccc(C)c3)C2=O)ccc1OC(C)C(=O)O (stereo not drawn)
  A = nt	B = 21%	C = nt	D = -1.6%

Next results:
Labels used below – A = miR-21 FLuc; B = Rango dissoc inh; C = GLA inh pH 4.5; D = Rango complex inh
> CCN(CC)C(=O)c1ccc(N)cc1
  A = 1%	B = -4%	C = 7	D = 7.1%

> CCC1CCc2sc(C(=O)OCC(=O)N(CCOC)c3c(N)n(Cc4ccccc4)c(=O)[nH]c3=O)cc2C1 (stereo not drawn)
  A = nt	B = -18%	C = nt	D = 0.0%

> O=C(Nc1nnc(C2CCCO2)s1)c1ccc(Br)cc1 (stereo not drawn)
  A = -42%	B = 6%	C = -2	D = -2.2%

> Cn1cc(Cl)c(C(=O)OCC(=O)Nc2ccccc2)n1
  A = 0%	B = 2%	C = 0	D = 0.8%

> CC(=O)Oc1ccc(/C=c2\sc3ncnn3c2=O)cc1
  A = 0%	B = -1%	C = -13	D = -1.0%

> Nc1c2c(nc3ccccc13)N(c1ccccc1)CC2
  A = -10%	B = -9%	C = 19	D = 0.7%

> COc1ccc2cc(OC)c(C(=O)N3CCOCC3)cc2c1
  A = -1%	B = -8%	C = -2	D = 0.1%

These rows are one share of the data (hit frequency here may not be typical).
